# Methyltransferases = Primary Screen for Target Class Profiling of Small Molecule Inhibitors of Methyltransferases; purified enzyme, MTase-Glo SAH luminescence; hits give low values; calls only at 40 µM; 25,000 compounds, 3.9% hits; AID 1745853, 2022; active = -50% or lower on at least one of six enzymes; inconclusive = the cases between; inactive = as a rule above -30% on all six;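 further: enzymes were COMT GAMT GNMT HNMT NNMT and PNMT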
#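 Each enzyme was reacted with SAM and its substrate, with compounds tested once at 40 uM; SAH formed was read by MTase-Glo luminescence.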
# Calls only; i = inactive; ? = inconclusive; + = active, no number. On the % scale 0 is the no-effect control and ±100 the full control effect. These rows are one share of the data; rates above refer to the full screens.
No.	compound	Methyltransferases
1	COc1cccc(CN2C(=O)c3nc4ccccc4n3CC2(C)C(=O)NCc2ccccc2)c1OC (stereo not given)	i
2	O=C(NCCc1c[nH]c2ccc(O)cc12)c1ccc2ccccc2c1O	?
3	O=C(NCC1CCCO1)C1CCN(C2CCN(C(=O)CCC3CCCCC3)CC2)CC1 (stereo not given)	i
4	Cc1ccc(N2C(=O)c3nc4ccccc4n3CC2(C)C(=O)NC2CCCCCC2)cc1 (stereo not given)	i
5	CC(C)CCn1c(=O)c2ccc(C(=O)NC(C)C)cc2n2c(=O)n(Cc3cccc(Cl)c3)nc12	i
6	COC(=O)[C@@H]1C[C@H](NC(=O)c2c(Cl)cccc2Cl)CN1C	i
7	O=C(c1ccccc1OC(F)(F)F)N1CCC2(CC1)CC(O)CCO2 (stereo not given)	i
8	O=C(NC1CCCC1)N[C@@H]1C[C@H](Cn2cc(C3CC3)nn2)[C@@H](O)[C@H]1O	i
9	Cc1ccc(Cn2c(=O)c3ccc(C(=O)NCC(C)C)cc3n3c(=O)n(Cc4cccc(F)c4)nc23)cc1	i
10	C[C@]1(CO)C2CC[C@@H](O)[C@@H](CC(=O)N3CCC[C@H]3CO)[C@]2(C)CC[C@H]1OC(=O)Nc1cccc(F)c1 (stereo not given in full)	i
11	Cc1cc2c(cc1S(=O)(=O)N1CCN(c3ccccn3)CC1)n(C)c(=O)n2C	i
12	Cc1cc(S(=O)(=O)N2CCCC2c2noc(COc3ccc(F)cc3)n2)ccc1F (stereo not given)	i
13	Cc1ccc(Cl)cc1NC(=O)N1CCn2cccc2C1C (stereo not given)	i
14	Cc1ccccc1NS(=O)(=O)c1ccc2c(c1)n(C)c(=O)n2C	i
15	COCCn1c2c(c(=O)n1-c1ccccc1)CCN(C(=O)c1cccc(C#N)c1)C2	i
16	O=S(=O)(NCCn1cnc2ccccc21)c1cccc(Cl)c1	i
17	C/C=C(/COC(=O)/C(C)=C/C)C(=O)OC/C=C/c1ccc(OC)cc1	i
18	O=C(NCc1ccc(Cl)nc1)c1cc2cccnn2n1	i
19	CC(C)c1ccc(-n2cc(CN3CCCC(O)(CN(C)C)C3)cn2)cc1 (stereo not given)	i
20	CCc1cc2c(cc3n2CC(C)(C(=O)NC2CCC(C)CC2)N(Cc2ccco2)C3=O)s1 (stereo not given)	i
21	CCN1C(=O)c2cc(C(=O)NCc3cccnc3)nn2CC1(C)C(=O)NC1CCCC1 (stereo not given)	i
22	CC(C)c1ccc(NC(=O)C(c2ccccc2)N(C)C(=O)Cc2c[nH]c3ccccc23)cc1 (stereo not given)	?
23	COc1ccc(-c2nnc3n(Cc4ccc(F)cc4)c(=O)c4ccccc4n23)c(O)c1	i
24	O=C(O)CCc1conc1-c1ccc(F)cc1	i
25	O=C(CSc1nnc2n(Cc3ccc(F)cc3)c(=O)c3ccccc3n12)Nc1ccccc1F	i
26	O=c1c2ccccc2n2c(=O)n(Cc3cccc(F)c3)nc2n1CCc1ccccc1	i
27	O=C(/C=C/c1ccccc1O)O[C@@H]1O[C@H](CO)[C@@H](O)[C@H](O)[C@H]1O	i
28	Fc1ccc(C2Nc3c(Cl)cccc3C3C=CCC32)cc1 (stereo not given)	i
29	COCCN1C(=O)c2ccccc2C(C(=O)Nc2nnc(C)s2)C12CCCCC2 (stereo not given)	i
30	CN(Cc1ccccc1)S(=O)(=O)c1ccc2c(c1)n(C)c(=O)n2C	i
31	c1ccc(C2=NOC3(CCN(C4CCCCC4)CC3)C2)cc1	i
32	CN(C)CCCc1cc(C(=O)Nc2ccc(-c3ccncc3)cc2)ccc1O	+
33	CCN1CCN(Cc2ccc(NC(=O)c3ccc(C)c(/C=C/c4cnc5[nH]ccc5c4OC)c3)cc2C(F)(F)F)CC1	i
34	O=C(Nc1ccc(=O)n2c1[C@@H]1C[C@@H](CN(C(=O)Nc3ccc(F)cc3)C1)C2)c1ccc2c(c1)OCO2	i
35	C=Cc1ccc(Cn2nc3n(CCC)c(=O)c4ccc(Cl)cc4n3c2=O)cc1	i
36	CCN(C1CCOCC1)C1CN(C(=O)c2ccnn2C)C1	i
37	CS(=O)(=O)N1CC2(CCCN(Cc3cccnc3)C2)Cc2ccccc21 (stereo not given)	i
38	Cc1cc(C)n(CCCN(C)C(=O)c2cn(Cc3ccc(F)cc3)nn2)n1	i
39	Cc1cccc(CC(=O)N2CC(Oc3ccccc3-c3noc(C)n3)C2)c1	i
40	CC(C)CCNC(=O)C1(C)Cn2c(cc3ccccc32)C(=O)N1Cc1ccc(OC(C)C)cc1 (stereo not given)	i
41	NC(=O)COC[C@@H]1CN(Cc2ccco2)C[C@H]1c1ccncc1	i
42	Cc1ccc(C)c(N2CCN(C(=O)CCc3nnc4n(CCC(C)C)c(=O)c5ccccc5n34)CC2)c1	i
43	COc1ccc(CNC(=O)C(C)n2ccc3cc(S(=O)(=O)N4CCCC4)ccc32)c(OC)c1 (stereo not given)	i
44	CC(C)CCNC(=O)c1ccc2c(=O)[nH]c3c(C(=O)NC4CCCC4)sc(=S)n3c2c1	?
45	CCCCN1C(=O)CC[C@H]2CN(C(=O)Cc3c[nH]c(=O)n(C)c3=O)CC[C@H]21	i
46	CCc1ccccc1N1C(=O)c2c(C(=O)OC)ncn2CC1(C)C(=O)NCc1ccccc1 (stereo not given)	i
47	Cc1ccccc1CNC(=O)c1cc2n(n1)CC(C)(C(=O)NCc1ccccc1)N(C)C2=O (stereo not given)	i
48	Cc1cc2[nH]c(=O)[nH]c2cc1S(=O)(=O)N1CCN(Cc2ccccc2)CC1	i
49	CCOCCCNC(=O)CCc1nnc2n(Cc3ccccc3Cl)c(=O)c3ccccc3n12	i
50	CCOC(=O)c1cc2n(n1)CC(C)(C(=O)NC1CCCCC1)N(Cc1ccc(CC)cc1)C2=O (stereo not given)	i
51	CNc1cc2c(Nc3cccc(Br)c3)ncnc2cn1	+
52	Cc1cccc(N2C(=O)c3cc4sccc4n3CC2(C)C(=O)NC2CCCC(C)C2C)c1C (stereo not given)	i
53	CCOc1ccccc1CN1C(=O)c2cc(-c3ccccc3)nn2CC1(C)C(=O)NCc1ccccc1 (stereo not given)	i
54	CC1(C)CC[C@]2(C(=O)O)CC[C@]3(C)C(=CCC4[C@@]5(C)CC[C@H](O[C@@H]6O[C@H](CO)[C@@H](O)[C@H](O)[C@H]6O[C@@H]6O[C@H](CO)[C@@H](O)[C@H](O)[C@H]6O)[C@@](C)(CO)C5CC[C@]43C)[C@@H]2C1 (stereo not given in full)	i
55	CNC(=O)c1ccccc1Oc1nc(Nc2cc(OC)c(OC)c(OC)c2)ncc1Br	?
56	Cc1ccccc1Cn1nc2n(C(C)C)c(=O)c3ccc(C(=O)NC(C)C)cc3n2c1=O	i
57	Cc1ccccc1CSc1nnc2n(CCC(C)C)c(=O)c3ccccc3n12	i
58	CC(C)CCNC(=O)C1(C)Cn2nc(C(=O)NCc3ccccc3)cc2C(=O)N1C (stereo not given)	i
59	C#CCNC(=O)[C@H]1O[C@H](CCN(C)CC#C)CC[C@@H]1O	i
60	CCC(C)NC(=O)c1ccc2c(=O)n(C)c3nnc(SCC(=O)c4ccc(OC)cc4)n3c2c1 (stereo not given)	i

# Values in list order from the entries so far:
# Methyltransferases, compounds 29–35, in order: i, i, i, +, i, i, i

# Next structures
No.	compound	Methyltransferases
61	CC1=C(CO)C(=O)O[C@@H]([C@@H](C)[C@H]2CC[C@H]3[C@@H]4C[C@H]5O[C@]56[C@@H](O)C=CC(=O)[C@]6(C)[C@H]4CC[C@]23C)C1	?
62	Cc1ccc(Cn2c(=O)c3ccccc3n3c(SCC(=O)Nc4ccc(C)cc4)nnc23)cc1	i
63	Cc1cccc(N2C(=O)c3ccccc3CC2(C)C(=O)NCc2ccccc2C)c1 (stereo not given)	i
64	Nc1nc2c(ncn2[C@@H]2O[C@@H]3COP(=O)(O)O[C@H]3[C@H]2O)c(=O)[nH]1	i
65	O=C(NCc1nnc2cc(-c3nc(C4CC4)no3)ccn12)C1(c2ccccc2)CC1	i
66	C=CC(=O)Nc1cccc(Nc2nc(Nc3ccc(Oc4ccnc(C(=O)NC)c4)cc3)ncc2F)c1	+
67	CC(C)CCn1c(=O)c2ccc(C(=O)NC3CCCCC3)cc2n2c(=O)n(Cc3cccc(F)c3)nc12	i
68	CC1(C(=O)NC2CCCCC2)Cn2c(cc3ccccc32)C(=O)N1Cc1cccnc1 (stereo not given)	i
69	O=C(Nc1ccc2c(c1)OCCO2)N1CCCC(CN2CCOCC2)CC1 (stereo not given)	i
70	O=C1Nc2ccc(-c3ccsc3)cc2C(=O)N2CCN(C(=O)CO)C[C@H]12	i
71	C=C(C)Cn1c(SCC(=O)c2cccs2)nc2sc3c(c2c1=O)CCCC3	?
72	COC[C@H]1C[C@@H](NC(=O)c2cc(C)oc2C(F)(F)F)[C@H](O)[C@@H]1O	i

# A second format for part of the listing above.
66: C=CC(=O)Nc1cccc(Nc2nc(Nc3ccc(Oc4ccnc(C(=O)NC)c4)cc3)ncc2F)c1
  Methyltransferases: +

61: CC1=C(CO)C(=O)O[C@@H]([C@@H](C)[C@H]2CC[C@H]3[C@@H]4C[C@H]5O[C@]56[C@@H](O)C=CC(=O)[C@]6(C)[C@H]4CC[C@]23C)C1
  Methyltransferases: ?

68: CC1(C(=O)NC2CCCCC2)Cn2c(cc3ccccc32)C(=O)N1Cc1cccnc1 (stereo not given)
  Methyltransferases: i

71: C=C(C)Cn1c(SCC(=O)c2cccs2)nc2sc3c(c2c1=O)CCCC3
  Methyltransferases: ?

# New compounds follow:
No.	compound	Methyltransferases
73	CCC1(C)CC(CC(=O)O)(c2ccccc2OC)CCO1 (stereo not given)	i
74	CC1CCN(S(=O)(=O)c2ccc3c(ccn3CC(=O)NC3CC3)c2)CC1	i
75	CC(CO)C1CCC2(C)CC3C(CO)CC(O)C3C(C)(O)C/C=C/12 (stereo not given)	i
76	C=C1CC[C@@H]2[C@](C)(CO)[C@H](O)CC[C@@]2(C)[C@@H]1C/C=C1/C(=O)OC[C@@H]1O	?
77	Clc1ccc(C2Nc3ccc(Br)cc3C3C=CCC32)cc1 (stereo not given)	i
78	Cc1ccc(S(=O)(=O)c2nnn3c2nc(NCc2ccccc2)c2ccccc23)c(C)c1	i
79	COCCCNC(=O)c1cc2n(n1)CC(C)(C(=O)NCc1ccc(F)cc1)N(C)C2=O (stereo not given)	i
80	c1ccc(C(NCc2cccnc2)(c2ccccc2)c2ccccc2)cc1	i
81	CCCn1c(=O)c2cc(Cl)ccc2n2c(=O)n(CC(=O)Nc3ccc4c(c3)OCO4)nc12	i
82	CCCn1c(=O)c2ccc(C(=O)NC3CCCC3)cc2n2c(=O)n(CC(=O)c3ccc(F)cc3F)nc12	i
83	CC1(C(=O)NC2CCCCC2)Cn2c(cc3sccc32)C(=O)N1Cc1ccco1 (stereo not given)	i
84	Cn1c(=O)n(C)c2cc(S(=O)(=O)N(Cc3ccco3)C(=O)c3ccncc3)ccc21	i
85	CCN1C(=O)c2cc(C(=O)NC3CCCCCC3)nn2CC1(C)C(=O)NC1CCCC1 (stereo not given)	i
86	Cc1cccc2c1CC[C@H](CN1CCC(c3c(Cl)cccc3Cl)CC1)C[C@@H]2O	i
87	COc1ccccc1C(=O)N1CCC(Cc2nncn2-c2ccccc2)CC1	i
88	CC1=C(CO)C2(C)CCCC(C)(C)C2C(O)C1O (stereo not given)	i
89	CC(C)OCCCn1c(=O)c2ccccc2n2c(=O)n(CC(=O)NCc3ccc(Cl)cc3)nc12	i
90	COc1cc2nc(N3CCC(N4CCCCC4)CC3)nc(NC3CCCCCC3)c2cc1OC	+
91	Cc1ccccc1CSc1nnc2n(Cc3ccccc3)c(=O)c3ccc(C(=O)NC(C)C)cc3n12	i
92	CN1CCN(C(=O)C2CCCCC(=O)N2)CC1 (stereo not given)	i
93	COc1ccc(CNC(=O)c2cc3n(n2)CC(C)(C(=O)NCc2ccc(F)cc2)N(C)C3=O)cc1OC (stereo not given)	i
94	Cc1noc(C)c1-c1cc2c(cc(C)n2C)c(NCc2ccncc2)n1	i
95	CC(C)Cn1c(=O)c2ccc(C(=O)NC3CCCC3)cc2n2c(=O)n(CC(=O)Nc3ccccc3)nc12	i
96	CC(C)c1c(O)ccc2c1CC[C@H]1C(C)(C)CCC[C@]21C	i
97	CCC(C)n1cc(C)c2c(C(=O)NCc3c(C)cc(C)[nH]c3=O)cc(-c3ccc(N4CCNCC4)nc3)cc21 (stereo not given)	?
98	CCCn1c(=O)c2ccc(C(=O)NC3CCCC3)cc2n2c(=O)n(CC(=O)c3ccc(C)cc3C)nc12	i
99	CC1CCCC(NC(=O)C2(C)Cn3c(cc4sccc43)C(=O)N2CCc2ccccc2)C1C (stereo not given)	i
100	COc1ccccc1CNS(=O)(=O)c1ccc2c(c1)n(C)c(=O)n2C	i
101	COc1ccc(CN2C(=O)c3cc(C(C)(C)C)nn3CC2(C)C(=O)NC2CCCCCC2)cc1 (stereo not given)	i
102	COc1cc(/C=C/C(=O)OCC2OC(OC3(CO)OC(CO)C(O)C3O)C(O)C(O)C2O)ccc1O (stereo not given)	+
103	CC1(C(=O)NC2CCCCCC2)Cn2c(cc3sccc32)C(=O)N1Cc1ccc(Cl)cc1 (stereo not given)	i
104	C[C@@H]1O[C@@H](O[C@H]2[C@H](O)[C@@H](O)[C@H](O[C@H]3[C@H](O[C@H]4CC[C@@]5(C)C(=CC[C@@H]6C5CC[C@]5(C)[C@@H]7[C@H](C[C@@H]65)O[C@]5(CC[C@@](C)(CO[C@@H]6O[C@H](CO)[C@@H](O)[C@H](O)[C@H]6O)O5)[C@H]7C)C4)O[C@H](CO)[C@@H](O)[C@@H]3O)O[C@@H]2CO)[C@H](O)[C@H](O)[C@H]1O (stereo not given in full)	i
105	CCCN1C(=O)c2c(C(=O)NCc3ccc(N(C)C)cc3)ncn2CC1(C)C(=O)NCc1ccc(OC)cc1 (stereo not given)	i

# Source: PubChem BioAssay (National Center for Advancing Translational Sciences (NCATS))
